# Bead autofluor = flagged as autofluorescent in microsphere protease counterscreen; compound autofluorescence counterscreen, microsphere flow cytometry; hits give high values; fluorescence intensity (test concentration not listed); hit rate 3.1% among 360,000;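 active = at least 3 SD above the mean of all compounds, about 16000 in these data; inconclusive = too few beads counted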;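 note: 100 nL of 1 mM stock went into each well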
# Mtb hypoxia inh = PubChem AID 1159583 | M. tuberculosis hypoxia-regulated fluorescent reporter, fluorescence | fluorescence inhibition, % (test concentration not listed) | hit rate 0.1% among 300,000;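 active = 35 to 45% if threefold the growth effect, above 45% if 1.5-fold the growth effect; inactive = the rest, general growth blockers included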;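 note: wells of about 50 µL received 100 nL stock; 0% = vehicle wells and 100% = reference inhibitor wells; whole bacteria with a GFP reporter of the hypoxia response; strong numbers were not always called active; many hits fall short of the cut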
# BJeLR lethal = MLPCN primary cell-based screen for lethality selective to Ras in HRASV12 cells; BJeLR (HRASV12) viability, CellTiter-Glo ATP luminescence, 48 h; reference of the scale not given here; inhibition, % (test concentration not listed); hit rate 0.17% among 300,000; AID 1554, 2009;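 active = replicate mean above 50%; inconclusive = above 50% but judged a plate artefact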;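 note: 50 nL library stock added to about 25 µL; numbers are from one replicate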
# RN4220 kill = growth inhibition of S. aureus RN4220, primary screen, OD600 | 16 h | inhibition, % (no concentration beside the values) | hit rate 0.33% among 330,000;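 active = z-score of -3 or lower and OD600 up to 0.18 on both plates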;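 note: plate controls were untreated cells for no effect and reference antibiotic for full effect; stock transfer was 100 nL into about 80 µL; one replicate is shown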
# Sa ugtP lethal = growth inhibition of ugtP-null S. aureus, primary screen, RN4220 ugtP deletion, OD600 | hit rate 0.54% among 330,000 | 16 h; some inactives read as strong as hits | growth inhibition, % (concentration not given with the values);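 active = z-score under -3 and OD600 up to 0.15 on both plates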;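 note: plate controls were untreated wells for no effect and antibiotic for full effect; wells of about 80 µL received 100 nL stock; the first replicate is given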
# PrP UTR inh = inhibition of PrP 5' UTR reporter expression; hit rate 0.35% among 340,000; inhibition, % (no concentration beside the values); AID 488862, 2010; cell-based PrP 5' UTR mRNA reporter, plate reader;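 active = every replicate at 50% or more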;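 note: 0 = median of the neutral control wells; tested in H4 reporter cells; numbers are from one replicate; inactives centre near -14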
# Mtb hypoxia inh growth = second read-out of Mtb hypoxia inh, no call of its own (marks repeat the call); growth inhibition, %; measured here: M. tuberculosis growth (absorbance);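 0% = vehicle and 100% = reference antibiotic; read after six days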
# * marks the source's active call; other numbers are inactive results; ? = inconclusive; · = no result given.
item	mol	Bead autofluor	Mtb hypoxia inh	Mtb hypoxia inh growth	BJeLR lethal	RN4220 kill	Sa ugtP lethal	PrP UTR inh
1	C/C(Cl)=C\Cn1c(Nc2ccc(C)cc2)nc2c1c(=O)n(C)c(=O)n2C	3496	·	·	-1	0.6	-18	-8
2	Oc1ccc(C=NNC(=S)NN=Cc2ccc(O)cc2)cc1	·	6	8	·	7.1	10	·
3	CCc1ccc2c(c1)cc(CN(C(=S)Nc1ccc(Cl)cc1)C1CC1)c1nnnn12	11407	1	13	-4	0.2	-15	-6
4	CSc1nc2sc3c(c2c2nncn12)CCC3	2087	-7	12	1	1.3	2	-12
5	NC(=O)Cc1ccc(Nc2nnc(-c3ccccc3)c3ccccc23)cc1	2780	18	8	-6	-0.3	21	-21
6	CCCN1C(=O)C(=O)c2cc(C)ccc21	3942	0	12	·	12	5	-25
7	CCS(=O)(=O)c1ccc2c(c1)N(S(=O)(=O)c1ccc(Cl)cc1)CC(C(=O)O)O2 (configuration not stated)	4743	1	-5	3	5.3	-2	-16
8	CCN(CC(=O)NC1CCS(=O)(=O)C1)c1nc(-c2cccnc2)nc2ccccc12 (configuration not stated)	3538	14	15	-3	3.8	-7	-32
9	O=C(O)c1cc(-n2nnnc2SCc2ccccc2F)ccc1Cl	3296	3	5	5	-2.0	-1	-7
10	O=C(Cn1c(=O)sc2ccccc21)Nc1ccc2c(c1)OCCO2	2983	4	0	2	-1.9	9	-14
11	O=C(O/N=C1\CCS(=O)(=O)c2sccc21)c1c(F)cccc1F	3110	·	·	2	·	·	-17
12	C1=C2C[N+]3(CCCC3)CC2Cc2ccc3ccccc3c21 (configuration not stated)	3117	6	-3	4	-18	-9	-16
13	CC(C)(Oc1ccc(Cl)cc1)C(=O)NCC(c1ccco1)N1CCCCC1 (configuration not stated)	5188	0	9	-10	1.6	3	-33
14	N#Cc1c(N)nc2c(c1-c1ccc3c(c1)OCO3)CCCCCC2	2357	·	·	-11	3.6	27	-8
15	C[C@@H](CN=[N+]=[N-])CN1CC[C@H](O)CCC1=O	4051	·	·	0	·	·	-17
16	O=C(c1csc2ccccc12)n1cccn1	11147	4	9	·	6.4	2	-18
17	CC(C)NC(=O)c1ccccc1NC(=O)Cc1ccc(Cl)cc1	8999	4	4	2	2.6	-9	-19
18	N#Cc1ccccc1NC(=O)CSc1nnc(-c2ccccc2O)n1-c1ccccc1	11451	0	0	2	6.1	5	-25
19	O=C(NN=Cc1sc(N2CCOCC2)nc1-c1ccccc1)c1ccccc1Cl	·	-5	0	·	8.6	10	·
20	CC1CN(CCCCOc2cccc(Oc3ccccc3)c2)CC(C)O1 (configuration not stated)	3803	12	2	-4	27	-1	-28
21	CCn1nc(C)c(C2C(C#N)=C(N)OC3=C2C(=O)CCC3)c1C (configuration not stated)	2079	4	-3	3	0.6	10	-5
22	Cc1ccc(C)n1-c1ccc(N2CCOCC2)cc1	15146	1	6	·	7.1	-1	1
23	CCN1CCN(CC(O)COc2ccc3c(C)cc(=O)oc3c2)CC1 (configuration not stated)	4817	5	-1	1	-2.0	0	-15
24	COc1ccc(C(=O)NCCc2nnc(SCC(=O)Nc3ccccc3F)n2C)cc1	4074	-9	12	2	3.3	-1	28
25	CCOc1ccccc1C(=O)N1CCN(c2ccc(C(F)(F)F)cn2)CC1	3038	12	2	-3	4.7	9	62*
26	Cc1ccccc1Cn1c(C)nc2ccc([N+](=O)[O-])cc2c1=O	3967	-3	12	8	5.8	9	-16
27	CCOc1cccc(=O)c2c(C)n(CC3CCCO3)c(C)c12 (configuration not stated)	22056*	6	13	0	2.6	1	-17
28	Nc1ccc(NC(=O)c2ccccc2)c2c1C(=O)c1ccccc1C2=O	9203	-7	-1	-1	-2.3	-9	2
29	C[C@@H](C(=O)N[C@H](C(=O)O)c1ccccc1)n1nnc2ccccc2c1=O	2628	16	5	-1	1.2	4	-12
30	Cc1ccc(NS(=O)(=O)c2ccc(OCC(=O)N3CCOCC3)cc2)cc1	12881	5	2	1	7.1	6	-10
31	CCn1c(CNC(=O)C23CC4CC(CC(C4)C2)C3)nnc1SC	4271	-2	-5	-2	5.3	2	-19
32	CC(=O)c1ccc(S(=O)(=O)Nc2ccc(-n3c(C)nc4ccccc4c3=O)cc2)cc1	?	-8	5	0	2.3	1	-12
33	Cc1ccc(OCc2nnc(SCC(=O)C(C)(C)C)n2Cc2ccco2)cc1	3371	·	·	2	0.4	-4	-29
34	COCCN(C(=O)c1ccc(COc2ccccc2)o1)c1c(N)n(CC(C)C)c(=O)[nH]c1=O	3877	-3	0	·	2.0	5	-4
35	CC(=O)Nc1ccc2c3c(cccc13)C(=O)N(c1ccccc1)C2=O	4004	5	9	-8	0.8	9	-34
36	Cc1ccccc1C(=NC(=O)c1ccccc1)c1ccccc1	2366	·	·	3	2.2	56	-9
37	CCCCOc1ccccc1C(=O)N(Cc1ccco1)C1CCS(=O)(=O)C1 (configuration not stated)	5791	-3	2	6	2.7	2	-14
38	CC(C)c1ccc(CN(C(=O)C2COc3ccccc3O2)C2CCS(=O)(=O)C2)cc1 (configuration not stated)	16571*	6	6	-6	6.4	-4	6
39	CCCCOc1ccc(S(=O)(=O)Nc2cccnc2)cc1	13119	7	3	10	8.8	-1	-13
40	COc1ccc(C(=O)N[C@H](C(=O)Nc2sccc2C(N)=O)C(C)C)cc1	3029	2	-14	2	3.6	12	0

# A draw from above in order of SMILES length, highest first.
item	mol	Bead autofluor	Mtb hypoxia inh	Mtb hypoxia inh growth	BJeLR lethal	RN4220 kill	Sa ugtP lethal	PrP UTR inh
7	CCS(=O)(=O)c1ccc2c(c1)N(S(=O)(=O)c1ccc(Cl)cc1)CC(C(=O)O)O2 (configuration not stated)	4743	1	-5	3	5.3	-2	-16
3	CCc1ccc2c(c1)cc(CN(C(=S)Nc1ccc(Cl)cc1)C1CC1)c1nnnn12	11407	1	13	-4	0.2	-15	-6
40	COc1ccc(C(=O)N[C@H](C(=O)Nc2sccc2C(N)=O)C(C)C)cc1	3029	2	-14	2	3.6	12	0
30	Cc1ccc(NS(=O)(=O)c2ccc(OCC(=O)N3CCOCC3)cc2)cc1	12881	5	2	1	7.1	6	-10
33	Cc1ccc(OCc2nnc(SCC(=O)C(C)(C)C)n2Cc2ccco2)cc1	3371	·	·	2	0.4	-4	-29
25	CCOc1ccccc1C(=O)N1CCN(c2ccc(C(F)(F)F)cn2)CC1	3038	12	2	-3	4.7	9	62*
5	NC(=O)Cc1ccc(Nc2nnc(-c3ccccc3)c3ccccc23)cc1	2780	18	8	-6	-0.3	21	-21
17	CC(C)NC(=O)c1ccccc1NC(=O)Cc1ccc(Cl)cc1	8999	4	4	2	2.6	-9	-19
9	O=C(O)c1cc(-n2nnnc2SCc2ccccc2F)ccc1Cl	3296	3	5	5	-2.0	-1	-7
6	CCCN1C(=O)C(=O)c2cc(C)ccc21	3942	0	12	·	12	5	-25

# Continuation.
item	mol	Bead autofluor	Mtb hypoxia inh	Mtb hypoxia inh growth	BJeLR lethal	RN4220 kill	Sa ugtP lethal	PrP UTR inh
41	Cc1cc(NC(=O)COC(=O)/C=C/c2ccc(C)o2)no1	5851	-2	-3	·	2.9	3	-13
42	CCOC(=O)c1cnc(SCc2ccc(Cl)c(Cl)c2)nc1N1CC1	3530	-4	5	·	-3.9	3	-51
43	COc1cccc(C(=O)NCCS(=O)(=O)NCCCc2ccccc2)c1	?	·	·	18	·	·	15
44	COc1ccc(C(=O)NCCSCc2cccc(Cl)c2)cc1OC	3987	3	0	18	-1.7	13	-15
45	O=C1NC2(CCCCC2)C(=O)N1N=Cc1ccc(O)cc1O	·	8	6	·	2.3	1	·
46	Cc1cccc(NC(=O)c2cccc(N3C(=O)C4CCC(C)CC4C3=O)c2)c1C (configuration not stated)	4378	6	6	-1	0.8	11	-2
47	CSc1nnc2c(n1)OC(c1cccn1C)N(C(C)=O)c1ccccc1-2 (configuration not stated)	3864	-4	0	-10	-0.8	-5	-1
48	Cc1ccc(NC(=S)NC(=O)c2c(-c3ccccc3Cl)noc2C)cc1	22637*	2	11	1	-0.7	39	-5
49	COc1ccc(-c2nnc(SCC(=O)O)n2Cc2ccccc2)cc1	4053	·	·	4	·	·	-56
50	Cc1ccc(OS(=O)Nc2cccc3nccnc23)cc1 (configuration not stated)	12847	-5	-6	0	2.2	-4	-11
51	Cc1csc2nc(CNC(=O)C3CCCCC3)cn12	7453	4	13	6	-12	-4	-31
52	CC(=O)n1cc([C@H]2C=C(C(=O)Nc3ccccc3)O[C@@H](OCc3ccc(CO)cc3)C2)c2ccccc21	4218	·	·	7	·	·	-31
53	COC(=O)c1nn(-c2ccc(Cl)cc2)c(=O)cc1Sc1ccccn1	?	1	-2	8	-1.8	-3	5
54	N/C(=N\OC(=O)c1ccc2ccccc2c1)c1ccccc1Cl	4955	2	7	16	-1.3	-10	-79
55	O=C(O)c1c[nH]c2ccc([N+](=O)[O-])cc2c1=O	3404	6	8	·	4.9	6	-6
56	COc1ccc(S(=O)(=O)N2CCCCCC2)cc1NC(=O)c1c2c(nc3ccccc13)CCN(Cc1ccccc1)C2	10408	10	-1	14	2.5	-11	-32
57	O=NN1CCN(c2ccncc2S(=O)(=O)N2CCCCC2)CC1	5390	·	·	-1	·	·	0
58	O=C(CCCc1ccccc1)Nc1cccc(C(=O)O)c1	4712	-1	2	-2	3.3	7	36
59	O=C(CCC1CCCCC1)Nc1nccs1	1943	9	13	-1	6.6	9	-11
60	COc1ccc(-c2nc(CS(=O)CC(=O)NCCC3=CCCCC3)c(C)o2)cc1 (configuration not stated)	6466	0	3	7	4.3	-3	-22

# Compound profiles (already shown):
# CC1CN(CCCCOc2cccc(Oc3ccccc3)c2)CC(C)O1 (configuration not stated) across the screens: Bead autofluor = 3803; Mtb hypoxia inh = 12; Mtb hypoxia inh growth = 2; BJeLR lethal = -4; RN4220 kill = 27; Sa ugtP lethal = -1; PrP UTR inh = -28
# CCS(=O)(=O)c1ccc2c(c1)N(S(=O)(=O)c1ccc(Cl)cc1)CC(C(=O)O)O2 (configuration not stated) across the screens: Bead autofluor = 4743; Mtb hypoxia inh = 1; Mtb hypoxia inh growth = -5; BJeLR lethal = 3; RN4220 kill = 5.3; Sa ugtP lethal = -2; PrP UTR inh = -16

# Further results:
item	mol	Bead autofluor	Mtb hypoxia inh	Mtb hypoxia inh growth	BJeLR lethal	RN4220 kill	Sa ugtP lethal	PrP UTR inh
61	CN(C(=O)CSc1cccc[n+]1[O-])c1ccccc1	5440	1	2	·	4.3	8	-51
62	NC(=NO)C1COc2ccccc2O1 (configuration not stated)	·	12	2	·	5.7	3	·
63	CC(C(=O)N1CCCCC1)n1ncn2cccc2c1=O (configuration not stated)	3043	13	4	-5	3.0	2	-17
64	CCOc1nc(-c2ccc(Cl)cc2Cl)ccc1C#N	?	-18	-8	-10	2.2	-3	-12
65	CCOc1ccc(S(=O)(=O)N(CCO)CCO)cc1-c1nc2c(C(C)(C)C)nn(C)c2c(=O)[nH]1	?	·	·	-3	·	·	-16
66	O=C(NN=Cc1c[nH]c2ccccc12)c1ccccc1O	·	2	-6	·	8.8	5	·
67	CN1/C(=c2/s/c(=C3/C(=O)N(c4ccccc4)NC3=Nc3ccccc3)n(C)c2=O)C(C)(C)c2ccccc21	3877	·	·	0	·	·	-2
68	Cc1ccc(Nc2ccccc2N)cc1	3698	·	·	18	9.2	-2	-17
69	Cc1c(C(=O)NCCC2=CCCCC2)oc2ccc(S(=O)(=O)N3CCOCC3)cc12	9791	20	14	·	0.0	-21	-19
70	COc1ccccc1C(c1nnnn1Cc1ccccc1)N1CCC(C(N)=O)CC1 (configuration not stated)	3245	4	5	-4	8.0	14	-18
71	COCCCN1C(=O)C(=O)/C(=C(/O)c2ccccc2)C1c1ccc2c(c1)OCO2 (configuration not stated)	13139	7	4	-1	5.1	1	-29
72	CCOC(=O)C1=C(C)n2c(sc(=C3C(=O)Nc4ccccc43)c2=O)=NC1c1ccc(OC)cc1 (configuration not stated)	·	13	4	·	1.1	-7	·
73	COc1ccc(N2CCN(CC(=O)Nc3ccc(SC(F)F)cc3)CC2)cc1	2703	7	-1	-6	1.5	4	-25
74	Cc1noc(NS(=O)(=O)c2ccc(NC(=O)C34CCC(CC3)C4)cc2)c1C	8536	-14	-3	-1	0.6	-4	-16
75	CCOC(=O)C1CCCN(C(=O)c2cc(Cl)ccc2NC(=O)C2=C(C)OCCS2)C1 (configuration not stated)	4354	-4	-8	3	4.1	1	4
76	C=CCSC1=C(C#N)C(c2ccc(C(C)C)cc2)CC(=O)N1 (configuration not stated)	5675	·	·	3	·	·	-10
77	Cc1cc(-c2ccc(/C=N/n3cnnc3)o2)c([N+](=O)[O-])cc1C	4258	·	·	-4	·	·	-1

# Screening results: PubChem, several laboratories
